# Screens (PubChem)
# Mtb growth: M. tuberculosis H37Rv growth inhibitors, H37Rv strain (AID 1626). M. tuberculosis H37Rv growth inhibition; higher % means a stronger effect. inhibition, % at 10 µM, or IC50 in µM where a hit was titrated. hit rate 0.95% among 220,000;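 active means confirmed in a dose series; inconclusive means inhibition above 80% but not taken into the dose series; inactive means below 80% or under 30% at every dose of the series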;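 further: bacteria incubated seven days before Alamar blue readout; 0% = bacteria only wells and 100% = bacteria with antibiotic wells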
# Mtb bLac sens: beta-lactam sensitization of Mtb H37Rv. hit rate 0.27% among 330,000. M. tuberculosis H37Rv growth with meropenem, percent inhibition; hits of this screen are not shown here. inhibition, % at 25 µM;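 active means about 74% or more and at least 40 points above the plate without the antibiotic, then above 30% in a dose series; inconclusive means first-round hits that could not be retested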;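 further: growth measured after seven days incubation then overnight dye step; 0% = bacteria only wells and 100% = bacteria with antibiotic; twin plates without the antibiotic show which effects depend on it; some results filed as inactive read as strong as hits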
# YopH PTP inh: blocks Yersinia enterocolitica YopH tyrosine phosphatase; fluorescence Ex485/Em525; hit rate 0.16% among 140,000; inhibition, %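 (about 10 µM by stock and volumes)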; AID 898;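 active means inhibition of 50% or more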;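 further: controls were vehicle for no effect and minimum signal wells for full effect; inactives centre near -20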
# RecA intein inh: inhibitors of M. tuberculosis RecA intein splicing; P9WHJ3; cell-free RecA intein splicing, fluorescence; inhibition, %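 (about 9 µM by stock and volumes)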; hit rate 0.75% among 290,000; in the data active means inhibition above about 30%; inconclusive means no clear call, values can overlap the other calls;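 further: 0% = vehicle wells and 100% = reference inhibitor control wells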
# Target sequence (P9WHJ3 whole entry, looked up): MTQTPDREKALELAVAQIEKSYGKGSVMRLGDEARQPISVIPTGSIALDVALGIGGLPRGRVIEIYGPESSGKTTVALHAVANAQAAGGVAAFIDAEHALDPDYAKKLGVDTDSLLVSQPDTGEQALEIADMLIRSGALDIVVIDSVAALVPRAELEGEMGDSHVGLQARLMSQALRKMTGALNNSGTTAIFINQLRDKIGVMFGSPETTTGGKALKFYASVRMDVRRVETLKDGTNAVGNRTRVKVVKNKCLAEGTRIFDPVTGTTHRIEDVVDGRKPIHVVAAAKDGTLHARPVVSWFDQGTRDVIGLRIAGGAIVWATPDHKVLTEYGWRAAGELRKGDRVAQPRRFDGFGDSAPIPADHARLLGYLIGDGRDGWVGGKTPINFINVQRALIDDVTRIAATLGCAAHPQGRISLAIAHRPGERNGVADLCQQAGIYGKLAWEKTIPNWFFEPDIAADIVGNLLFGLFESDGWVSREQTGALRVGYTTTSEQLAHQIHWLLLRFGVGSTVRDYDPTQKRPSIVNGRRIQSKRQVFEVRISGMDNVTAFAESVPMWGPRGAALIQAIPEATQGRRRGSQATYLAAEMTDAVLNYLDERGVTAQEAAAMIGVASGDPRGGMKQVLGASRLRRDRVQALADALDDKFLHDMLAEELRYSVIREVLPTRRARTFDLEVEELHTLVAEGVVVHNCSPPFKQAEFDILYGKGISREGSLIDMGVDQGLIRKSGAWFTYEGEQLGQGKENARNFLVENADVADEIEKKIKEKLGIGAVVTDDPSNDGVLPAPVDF
# Arbovirus anti: antivirals against arbovirus infection | arbovirus infection cell-based antiviral screen | inhibition, % at 10 µM | hit rate 0.37% among 200,000 | AID 1251;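 active means inhibition from about 30%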;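 further: bluetongue infection of BSR cells; cell survival read as ATP light after 72 h; 0% = infected wells without compound and 100% = uninfected wells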
# Arbovirus anti repeat: further read-out of Arbovirus anti, marked with its call; inhibition, %; measured here: 10K subset replicate screen; many hits read low in the repeat;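 first of two repeat runs on a subset; 0% = infected and 100% = uninfected wells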
# * marks the source's active call; other numbers are inactive results; ? = inconclusive; / = no result given.
SMILES,Mtb growth,Mtb bLac sens,YopH PTP inh,RecA intein inh,Arbovirus anti,others
Cc1ccc(C)c(S(=O)(=O)N2CCN(C(=O)Cn3cnc4c3c(=O)n(C)c(=O)n4C)CC2)c1,/,-12,/,0.5,/,
Cc1ccc(NC(=O)CSCC(=O)Nc2cccc3ncccc23)cc1,/,0,/,-1.8,/,
Cc1nn(-c2ccccc2C(F)(F)F)c(=O)c2noc(C)c12,-7%,-6,/,-1.6,/,
O=S(=O)(c1cnc(Cl)c(Br)c1)N1CCc2ccccc21,-6%,2,/,0.9,/,
CCc1ccc(N(CC(=O)NC2CC2)S(=O)(=O)c2ccc(C)cc2)cc1,/,-14,/,-4.0,/,
COC(=O)COc1ccc(S(=O)(=O)Nc2ccc(C(N)=O)cc2)cc1C,-14%,5,-8,-1.0,3,
Cc1ccc(NC(=O)CN2C(=O)N/C(=C/c3ccc(N4CCOCC4)cc3)C2=O)cc1,-3%,9,-1,-8.8,-16,
COCCn1ccc2c(OCC(=O)Nc3cccc(NC(C)=O)c3)cccc2c1=O,/,-11,/,-0.7,/,
CC(C)(C)c1ccc(S(=O)(=O)NCCc2ccncc2)cc1,4%,-8,-41,1.8,12,
N#C/C(=C\c1ccc(-c2cccc([N+](=O)[O-])c2)o1)C(=O)NCCN1CCOCC1,4%,-4,/,-0.7,-7,
CN(C)N1C(N)=C(C#N)C(c2ccccc2)C2=C1CC(C)(C)CC2=O (configuration not stated),/,-4,/,1.8,/,
c1ccc(CN2CCC(=NNc3nc4ccccc4[nH]3)CC2)cc1,-3%,-5,/,-9.7,4,
CCOC(=O)c1c(C)[nH]c(C(=O)Cn2nnc(-c3ccc(Cl)cc3)n2)c1C,-7%,-8,-35,-1.8,1,
Fc1ccc(N2CCN(C(=S)NCc3ccco3)CC2)cc1,-4%,-4,/,2.5,-3,
Cc1ccccc1Cn1nc(C)c(NC(=O)c2cc(-c3ccco3)on2)c1C,-3%,-8,/,-1.5,2,
Cc1ccc(CN(C(=O)c2cccs2)C2CCS(=O)(=O)C2)cc1 (configuration not stated),/,1,/,2.5,/,
CCC(C)NC(=O)CSc1nnc(-c2cc(OC)c(OC)c(OC)c2)c(-c2cc(OC)c(OC)c(OC)c2)n1 (configuration not stated),/,-5,/,1.7,/,
CCc1nnc(N2C(=O)c3ccc(Oc4ccc([N+](=O)[O-])cc4)cc3C2=O)s1,-10%,-8,-31,1.2,2,
COc1ccc(CNC(=O)c2cccc(N3CCCC3=O)c2)cc1,-10%,-5,-21,-4.5,5,
CCCNC(=O)c1ccc(N2CCC3(CC2)CC(c2ccccc2)=NO3)c(NC(=O)c2ccco2)c1,/,27,/,5.5,/,
COC(=O)C1=C(c2cc3ccccc3o2)C[C@@H]2CC[C@H]1N2C(=O)NC(C)C,20%,-1,/,1.7,/,
CCOCCCNC(=O)CN1C(=O)CSc2ccc(S(=O)(=O)N3CCOCC3)cc21,/,-4,/,3.5,/,
CCn1c(=S)sc2c(=O)n(-c3ccccc3)c(SC)nc21,-15%,/,-52,-3.5,5,
COc1ccc(C(=O)CSc2nnc(Cn3cnc4ccccc43)o2)cc1,3%,1,-8,-0.1,-6,
Cc1ccc(S(=O)(=O)N2CCC(C(=O)N3CCN(c4ccccn4)CC3)CC2)cc1,/,?,/,0.8,/,
O=C(NCCN1CCOCC1)C(=O)NCc1ccco1,5%,2,/,-1.6,2,
Clc1ccc(-n2ncc3c(N4CCCCCC4)ncnc32)cc1,16%,6,-21,2.6,-3,Arbovirus anti repeat=1
COc1cccc(C(=O)N2CCCC(c3nc(-c4cccs4)no3)C2)c1 (configuration not stated),-7%,-16,6,5.3,6,
CN1CCN(c2ccc(NC(=O)COc3ccc4ccccc4c3)cc2)CC1,/,0,/,1.7,/,
O=C(NCc1ccccc1C(F)(F)F)C12CN(Cc3ccccc3)CC1C(c1ccc([N+](=O)[O-])cc1)=NO2 (configuration not stated),12%,-3,-33,1.0,8,
O=C(Nc1ccc2c(c1)OCO2)C1CCN(S(=O)(=O)c2cccc3cccnc23)CC1,11%,-2,-42,4.9,-3,
Cc1c(NC(=O)COC(=O)C2(c3ccccc3F)CCCC2)c(=O)n(-c2ccccc2)n1C,-12%,-10,/,-0.2,8,
NC(=O)NC(Cc1ccccc1)C(=O)NCC1(N2CCCCC2)CCCCC1 (configuration not stated),2%,-5,-37,4.2,1,
S=c1[nH]c2ccc(Cl)cc2[nH]1,-11%,7,-10,2.9,-8,
CCC(C)NC(=O)c1c(F)c(F)c(F)c(F)c1F (configuration not stated),0%,9,-19,-0.8,8,
CCSc1nc2c(c(=O)n1CC)SC(C)C2 (configuration not stated),-2%,5,-16,0.6,9,
Cc1ccc(C)c(OCc2nnc(SCC(=O)NCc3ccc4c(c3)OCO4)o2)c1,-4%,2,/,2.8,0,
CC(=O)Nc1cccc(/C(C)=N/NC(=O)c2ccc(NS(=O)(=O)c3cccs3)cc2)c1,-1%,-3,/,1.5,/,
Cc1ccc(NC(=O)Nc2ccc3c(c2)CCC3)cc1C,/,-13,/,-0.8,/,
CC1(C)OC2OC(COC(=O)c3ccccc3)C3OC(C)(C)OC3C2O1 (configuration not stated),7%,-8,-31,-2.8,5,
CCC(Oc1ccc(Cl)cc1)C(=O)N1CC(=O)Nc2ccccc21 (configuration not stated),/,1,/,1.5,/,
O=C(Cc1csc(Nc2nc(=S)[nH]c3ccccc23)n1)N1CCN(c2cccc(Cl)c2)CC1,41%,64,/,7.1,-4,
COc1ccccc1N1C(=O)C=C(Sc2nc(C)cc(C)n2)C1=O,-9%,61,/,1.7,/,
O=C(NC(=S)Nc1nc(-c2ccc(Br)cc2)cs1)c1ccco1,2%,2,/,/,-6,
O=C(COC(=O)CCOc1ccccc1)NCc1ccco1,/,-1,-42,1.2,0,
O=C(CS(=O)CC(=O)N(CC(=O)NC1CCCC1)C1CCCC1)Nc1ccc(F)cc1 (configuration not stated),-8%,-18,-43,-1.1,4,
CCc1cc(C(=O)N2CCCC(CCC(=O)NCc3cccc(OC)c3)C2)no1 (configuration not stated),2%,-7,/,0.0,-2,
CCCCN1CC(O)=C(c2nc(-c3ccc(Br)cc3)cs2)C1=N,-9%,-3,/,-0.3,/,
COc1cc(/C=N/NC(=O)c2cc3ccccc3[nH]2)ccc1O,/,-1,/,-1.1,/,
COC(=O)N=Nc1c(O)n(Cc2ccccc2)c2ccccc12,6%,0,/,1.9,/,
COc1ccccc1-c1cc2nc(C)cc(C)n2n1,8%,2,/,-1.3,/,
CN(CCO)c1ccc(-c2nn(C)c(=O)c3ccccc23)cc1[N+](=O)[O-],4%,66,/,-4.8,/,
Cc1cccc(NC(=O)C2CCN(S(=O)(=O)c3ccc4c(c3)C(C)(C)C(=O)N4C)CC2)c1C,/,0,/,1.9,/,
Cc1c(N=Cc2c(O)n(CCc3ccccc3)c(=O)[nH]c2=O)c(=O)n(-c2ccccc2)n1C,-4%,-8,-11,1.4,7,
CCCCC(=O)Nc1ccccc1Oc1ccccc1,25%,6,/,3.2,1,
CC(C)Sc1nc(N2CCOCC2)c2c(c1C#N)CC(C)(C)SC2,10%,7,-29,1.3,10,
COc1cccc(N2CCN(C3CC(=O)N(c4ccc(F)c(Cl)c4)C3=O)CC2)c1 (configuration not stated),-10%,-3,-6,-1.5,3,
CCOc1ccc(NC(=O)NNC(=O)c2ccc(CC)s2)cc1,-8%,-2,/,2.9,5,
O=C(Cc1ccc(NC2=NC3CS(=O)(=O)CC3S2)cc1)NCc1ccccc1 (configuration not stated),/,2,/,-2.7,/,
COc1ccccc1NS(=O)(=O)c1cc(NC(=O)c2cc[n+]([O-])cc2)ccc1N1CCCC1,-9%,1,/,2.1,-4,

# Grouped by structure: the entries above containing a nitro group on carbon (4)
SMILES,Mtb growth,Mtb bLac sens,YopH PTP inh,RecA intein inh,Arbovirus anti,others
N#C/C(=C\c1ccc(-c2cccc([N+](=O)[O-])c2)o1)C(=O)NCCN1CCOCC1,4%,-4,/,-0.7,-7,
CCc1nnc(N2C(=O)c3ccc(Oc4ccc([N+](=O)[O-])cc4)cc3C2=O)s1,-10%,-8,-31,1.2,2,
O=C(NCc1ccccc1C(F)(F)F)C12CN(Cc3ccccc3)CC1C(c1ccc([N+](=O)[O-])cc1)=NO2 (configuration not stated),12%,-3,-33,1.0,8,
CN(CCO)c1ccc(-c2nn(C)c(=O)c3ccccc23)cc1[N+](=O)[O-],4%,66,/,-4.8,/,

# Next records
SMILES,Mtb growth,Mtb bLac sens,YopH PTP inh,RecA intein inh,Arbovirus anti,others
Cc1ccc(CN2CCc3[nH]c(=O)[nH]c(=O)c3C2)cc1,8%,-1,/,-0.5,12,
COC(=O)Nc1ccc2c(c1)OCO2,-2%,-7,-27,14,-12,
CCOC(=O)c1[nH]cnc1C(=O)Nc1ccc(Cl)cc1,-2%,56,/,1.9,1,
COc1cc(NC(=O)c2cccnc2SC)cc(OC)c1,0%,7,/,-3.2,3,
CCOc1ccnc2c1c(=O)n(Cc1cc(OC)cc(OC)c1)c(=O)n2C,/,-1,/,-7.1,/,
Cc1ccccc1-n1c(-c2ccoc2)nc2ccccc2c1=O,11%,-1,/,1.9,-6,
Cc1ccc(F)c(CNC(=O)C2CCC(=O)N(CCCN3CCCC3=O)C2)c1F (configuration not stated),/,-4,/,0.1,/,
COc1cccc(-c2nc3cc(C)ccc3o2)c1,2%,-7,-26,4.9,-4,Arbovirus anti repeat=-3
CC(C)c1ccc(O)c(C(=O)c2cnn(-c3ccccc3)c2)c1,/,52,/,14,/,
COc1ccc(CNC(=O)CN2C(=O)CC(c3ccccc3)=Nc3ccccc32)cc1,-6%,0,/,2.6,1,
Cc1noc(C)c1CSc1nnc(-c2cc(Cl)ccc2Cl)n1N,-9%,-1,-4,0.3,5,Arbovirus anti repeat=9
O=C(O)c1cnn(-c2ccccc2)c1-c1ccccc1,2%,71,-21,-2.7,2,
CC(C)(C)c1nnc(NC(=S)Nc2ccccc2)s1,?,99,/,1.8,22,
CCn1c(SCc2ccc(C)cc2)nnc1-c1cnccn1,4%,-5,-19,1.0,2,
Cc1cc(C)nc(SCc2nnc(SCc3ccc([N+](=O)[O-])cc3)n2Cc2ccco2)n1,9%,-5,4,2.7,10,
Cc1cc(C)cc(-n2c(SCC(=O)NCc3ccc4c(c3)OCO4)nc3ccccc3c2=O)c1,0%,4,-40,-0.6,-16,
c1ccc(Cn2nnc3c(Nc4ccc5c(c4)OCO5)nc(C4CC4)nc32)cc1,6%,0,2,3.8,-14,
CCOc1ccc(N(CC(=O)NC(C)CC)S(C)(=O)=O)cc1 (configuration not stated),-3%,10,-20,1.0,9,
CN1CCN(c2nc(NCc3ccco3)nc(N)c2[N+](=O)[O-])CC1,-16%,-5,/,-2.2,/,
N=c1ccn(Cc2cccc(Cl)c2)cc1,-2%,-5,3,0.8,-7,
Cc1ccccc1N1CCN(C(=O)CN2C(=O)c3ccccc3C2=O)CC1,-2%,-3,-14,6.8,-5,
CCCc1cc(C(=O)Cc2nc3ccccc3s2)c(O)cc1O,0%,3,-34,-157,9,
O=C(NCc1ccco1)c1ccc(CNc2c(N3CCCCC3)c(=O)c2=O)cc1,/,6,-32,0.1,-1,
O=C(Nc1ncc2c(n1)CC(c1ccco1)CC2=O)c1ccco1 (configuration not stated),-3%,1,/,-1.2,/,
O=C(CSc1nnc(-c2cccnc2)n1Cc1ccco1)N1c2ccccc2Sc2ccccc21,-9%,-7,-14,/,-3,
O=C(O)c1ccccc1-c1ccccc1C(=O)Nc1ccccc1-c1ccccc1,/,-5,/,-11,/,

# Compounds shown so far that have an NH in an aromatic ring, in the order listed:
SMILES,Mtb growth,Mtb bLac sens,YopH PTP inh,RecA intein inh,Arbovirus anti,others
c1ccc(CN2CCC(=NNc3nc4ccccc4[nH]3)CC2)cc1,-3%,-5,/,-9.7,4,
CCOC(=O)c1c(C)[nH]c(C(=O)Cn2nnc(-c3ccc(Cl)cc3)n2)c1C,-7%,-8,-35,-1.8,1,
S=c1[nH]c2ccc(Cl)cc2[nH]1,-11%,7,-10,2.9,-8,
O=C(Cc1csc(Nc2nc(=S)[nH]c3ccccc23)n1)N1CCN(c2cccc(Cl)c2)CC1,41%,64,/,7.1,-4,
COc1cc(/C=N/NC(=O)c2cc3ccccc3[nH]2)ccc1O,/,-1,/,-1.1,/,
Cc1c(N=Cc2c(O)n(CCc3ccccc3)c(=O)[nH]c2=O)c(=O)n(-c2ccccc2)n1C,-4%,-8,-11,1.4,7,
Cc1ccc(CN2CCc3[nH]c(=O)[nH]c(=O)c3C2)cc1,8%,-1,/,-0.5,12,
CCOC(=O)c1[nH]cnc1C(=O)Nc1ccc(Cl)cc1,-2%,56,/,1.9,1,

# An excerpt, so the mix of outcomes need not match the whole.
